Screening results: PubChem, National Center for Advancing Translational Sciences (NCATS)
VACV Venus inh – vaccinia inhibition (Venus reporter) | Vaccinia virus Venus reporter expression, fluorescence | Potency, µM (highest dose often 36.5 µM), without a hit: at the highest dose activity change, negative = inhibition, actives largely listed as inhibitors | actives 0.46% (n = 330,000); active means well fitted inhibition curve with a large enough effect; inconclusive means small, poorly fitted or top-dose-only effect; inactive means no such curve, though single readings can be large or run the other way; tested in A549 cells; also: nearly all actives have a fitted effect of over 30% in size; inactives centre near -10
VACV mCherry inh – inhibitors of vaccinia virus infection (mCherry reporter signal) | Vaccinia virus mCherry reporter infection, fluorescence; about a quarter of the inactives have no number | Potency, µM (series often up to 36.5 µM), for inactives: at the top dose activity change, negative = inhibition, most hits filed as inhibitors | actives 0.63% (n = 310,000) | AID 720579; active = well fitted inhibition curve with a large enough effect; inconclusive = small, poorly fitted or top-dose-only effect; inactive = no such curve, though single readings can be large or run the other way; tested in A549 cells; also: nearly all actives have a fitted effect of over 35% in size; inactives centre near -10
The depositor's hits bear a star; i = inactive; ? = inconclusive; · = no result given; [ ] = another dose, or the depositor's remark. % is scaled to controls: 0 for no effect and ±100 for the full control effect; potency is read from the fitted curve at half-maximal effect.

Every second line gives: VACV Venus inh	VACV mCherry inh
(1) NC(=O)CC(NC(=O)Cc1cccc2ccccc12)c1ccc(NC2CCCCC2)c([N+](=O)[O-])c1 (configuration not stated)
  -20%	i
(2) CCOc1ccc(CCNC(=O)C2CCN(S(=O)(=O)N3CCC(C)CC3)CC2)cc1OCC
  -3%	-23%
(3) O=C(NCCN1CCCCCC1)c1ccc(CS(=O)(=O)c2ccc(Br)cc2)o1
  -12%	-17%
(4) N#Cc1nn(-c2ccccc2)nc1N1CCCCC1
  ?	·
(5) Nn1c(SCC(=O)NC(=O)NCc2ccco2)nnc1-c1ccc(OC(F)F)cc1
  -9%	i
(6) COc1cccc(CN2C(=O)NC(C)(C3CCN(Cc4cc(F)cc(F)c4)CC3)C2=O)c1OC (configuration not stated)
  -16%	i
(7) Cc1nn(C)c(C)c1NC(=O)CSc1nc(Cc2ccccc2)nc2c1cnn2-c1ccccc1
  -1%	i
(8) CCN(CC)C(=O)c1ccccc1NC(=O)c1ccccc1
  -29%	i
(9) O=C(CSc1nnnn1C1CCCCC1)N1CCCC1
  -9%	-7%
(10) CN(C)CCCn1c(SCC(=O)Nc2nccs2)nnc1-c1ccncc1
  -10%	-8%
(11) C/C(N)=C(/C#N)C(=O)COC(=O)C1CSC2(c3ccc(F)cc3)CCC(=O)N12 (configuration not stated)
  -8%	-3%
(12) CC1(C)CC(NC(=O)Cc2ccccc2[N+](=O)[O-])CC(C)(C)N1
  -11%	-14%
(13) Cc1ccccc1NC(=O)C1CCCN1S(=O)(=O)c1ccc2c(c1)n(C)c(=O)c(=O)n2C (configuration not stated)
  -2%	-11%
(14) COc1ccc(-c2[nH]ncc2-c2cnc(C)s2)c(O)c1
  1%	-11%
(15) COc1cccc(NC2=C(Cl)C(=O)OC2OC(=O)c2ccco2)c1 (configuration not stated)
  1%	i
(16) CCOc1ccc(NC(=O)Cn2cc(C(=O)c3ccc(F)cc3)c(=O)c3cc4c(cc32)OCCO4)cc1
  4%	7%
(17) CCOc1ccccc1NC(=O)COC(=O)CSc1ccc(Cl)cc1
  -1%	-1%
(18) O=C(NC1CCCCCCC1)c1ccc(Br)cc1
  -11%[7.34 µM]	6%[7.34 µM]
(19) COc1ccccc1NC(=O)CSc1ccc2nnc(-c3ccc(C)cc3)n2n1
  -11%	i
(20) NC(=O)CC(NC(=O)c1cccc(Br)c1)c1ccc(N2CCC(N3CCCCC3)CC2)c([N+](=O)[O-])c1 (configuration not stated)
  -12%	i
(21) CSc1nccc(-c2cc(Cl)c3c(c2)CC(CNC(=O)c2nonc2C)O3)n1 (configuration not stated)
  -22%	-2%
(22) C=CCNC(=S)Nc1sc2c(c1C(=O)OCC)CC(C)(CC)OC2 (configuration not stated)
  -7%	-2%
(23) COc1cccc(N2CCN(C(=O)c3ccc4nc(N5CCC(C)CC5)sc4c3)CC2)c1
  -23%	i
(24) COc1ccc2c(C)c(CCC(=O)NCc3ccc(Cl)cc3)c(=O)oc2c1C
  -9%	-9%
(25) CCOC(=O)c1ccc(Nc2ncnc3c2cnn3-c2cccc(Cl)c2)cc1
  -12%	-12%
(26) COc1ccc(C2c3ccc4ccccc4c3Oc3ncn4nc(Cc5ccccc5)nc4c32)cc1OC (configuration not stated)
  -9%	-5%
(27) O=C(CCCNC(=O)/C(=C\c1ccccc1F)NC(=O)c1ccccc1)OCc1ccccc1
  -12%	0%
(28) Nc1ccc(NC(=O)c2ccco2)c(Cl)c1
  -2%	-5%
(29) Cc1ccc(CSCC(=O)N(C)CC(=O)Nc2ccccc2Cl)cc1
  -7%	i
(30) O=C(COc1cccc2cccnc12)N1CCc2ccccc21
  2%	-7%
(31) Cc1cc(C)cc(NC(=O)Cn2cc(C(=O)c3ccccc3)c(=O)c3ccc(C)nc32)c1
  -12%	-12%
(32) CCC(=O)NC1=C(Nc2ccc(N)cc2)C(=O)c2ccccc2C1=O
  -9%	-9%
(33) O=C(c1nn(-c2ccccc2)c(=O)c2ccccc12)N1CCN(c2ncccn2)CC1
  -9%	0%
(34) CCN(CC)CCNC(=O)c1ccc2c(c1)sc1nc(-c3ccc(F)cc3)cn12
  -10%	-8%
(35) Cc1ccccc1Nc1c(F)c(F)c(F)c(F)c1C(=O)O
  -3%	-1%
(36) CCOC(=O)c1c(C)nc(SC)c(C#N)c1-c1ccccc1
  2%	-4%
(37) Nc1ncnc2c1ncn2[C@@H]1O[C@H](CNC(=O)[C@@H](N)Cc2ccc(C(=O)c3ccccc3)cc2)[C@@H](O)[C@H]1O
  1%	46%[activator]
(38) CS(=O)(=O)N(CC(N)=O)Cc1ccc(Cl)cc1
  -4%	-9%
(39) COc1ccc(Nc2nc(NCCO)nc(OC)n2)cc1
  -14%	-14%
(40) Cc1csc(N/N=C/c2ccc([N+](=O)[O-])cc2)n1
  -9%	?
(41) CCOCC(=O)Nc1ccc([N+](=O)[O-])cc1C
  -14%	-19%
(42) CCCCCN1C/C=C\C(c2ccc(OC)cc2)N(Cc2ccc(F)cc2)C(=O)C1 (configuration not stated)
  -14%	i
(43) O=C(CSc1nc(-c2ccc(F)cc2)cs1)NCCN1C(=O)CSC1=O
  -5%	-9%
(44) COC(=O)c1c(C)[nH]c(C(=O)CN2CCOCC2)c1C
  0%	·
(45) COc1ccc(/C=N/NC(=O)Nc2cccc3nsnc23)c(OC)c1
  -29%	-27%[1.46 µM]

Some of the entries above in another layout:
#36 CCOC(=O)c1c(C)nc(SC)c(C#N)c1-c1ccccc1
  VACV Venus inh: 2%
  VACV mCherry inh: -4%

#33 O=C(c1nn(-c2ccccc2)c(=O)c2ccccc12)N1CCN(c2ncccn2)CC1
  VACV Venus inh: -9%
  VACV mCherry inh: 0%

#35 Cc1ccccc1Nc1c(F)c(F)c(F)c(F)c1C(=O)O
  VACV Venus inh: -3%
  VACV mCherry inh: -1%

#45 COc1ccc(/C=N/NC(=O)Nc2cccc3nsnc23)c(OC)c1
  VACV Venus inh: -29%
  VACV mCherry inh: -27%[1.46 µM]

Next section.
Every second line gives: VACV Venus inh	VACV mCherry inh
(46) Cn1nc(C(F)(F)F)c2cc(NC(=O)OCC(C)(C)C)sc21
  -4%	-12%
(47) S=c1[nH]nc(CCc2ccc(Cl)cc2)o1
  -10%	-20%
(48) O=C(COc1ccc2ccccc2c1)Nc1cccc2cccnc12
  -3%	i
(49) COCCN1CCN(Cc2nc(Cc3ccc(OC)c(OC)c3)no2)CC1
  2%	-20%
(50) COc1ccccc1N1CCN(c2nc3ccc(C)cc3nc2-n2nc(C)cc2C)CC1
  -16%	-20%
(51) OCCC1CN(Cc2ccsc2)CCN1C1CCCC1 (configuration not stated)
  -15%	-12%
(52) O=C(NCC(F)(F)F)Nc1ncccn1
  -7%	-8%
(53) COC(=O)c1ccc(COC(=O)CNC(=O)C2CCCCC2)cc1
  -7%	i
(54) CC(Sc1nnc(-c2ccccc2F)n1C1CC1)C(N)=O (configuration not stated)
  -18%	-5%
(55) Cn1nnnc1SCC(=O)NC(C)(C)C
  -17%	·
(56) C/C(=N\NC(N)=S)c1ccc(Cl)s1
  ?	0.35µM*
(57) CC(=O)N1CCc2c(sc3c2c(=O)n(Cc2ccccc2)c(=O)n3Cc2ccccc2F)C1
  -15%	-24%
(58) Cc1ccc2cccc(CC(=O)NN)c2c1
  -5%	i
(59) COCCN(C(=O)CC1CCCC1)c1c(N)n(CC(C)C)c(=O)[nH]c1=O
  -6%	-17%
(60) COC(=O)c1cccc(NC(=S)NCc2ccco2)c1
  -11%	-6%
(61) Cc1cc(Nc2cccc(Cl)c2)nc2ccc(NC(=O)Cc3ccc(Cl)cc3)cc12
  ?	-26%
(62) CCc1nc2ccc(C(=O)Nc3ccc(Cl)c(Cl)c3)cn2c1N(C)Cc1ccc(OC)cc1
  -13%	20%
(63) CC(=O)Nc1c(F)cc(Br)cc1F
  -26%[7.34 µM]	i[7.34 µM]
(64) O=C1c2cccc(Cl)c2C(=O)N1c1ccccn1
  -2%[7.34 µM]	-13%[7.34 µM]
(65) Cc1ccc(N(C)C(=O)c2ccc3c(Cl)c4c(nc3c2)CCC4)cc1C
  ?	-13%
(66) CC(C)(C)Cc1c(-c2ccc(Br)cc2)nc2ccc(Cl)cn12
  -3%	?
(67) COCCn1c(SCC(=O)N2CCCCC2)nc2c(c1=O)SCC2
  -9%	-12%
(68) COc1ccc(CC(=O)N(C)Cc2ccc(C(C)(C)C)cc2)cc1S(=O)(=O)N1CCOCC1
  -22%	-10%
(69) O=C(c1ccc2c(c1)N(Cc1ccccc1Cl)C(=O)c1ccccc1S2)N1CCCC1
  -8%	-10%
(70) Cc1ccc(S(=O)(=O)N2C[C@H]3[C@H]4C(=O)N(c5ccccc5)C(=O)[C@H]4CC(=O)[C@H]3[C@@H]2c2ccc(Cl)cc2)cc1
  -8%	i
(71) CC(NC(=O)NC1CCCCC1)C(c1cccs1)N1CCN(C)CC1 (configuration not stated)
  2%	-10%
(72) COc1cc(C(=O)Nc2ccc3c(c2)Cc2ccccc2-3)cc(OC)c1OC
  ?	-15%
(73) O=C(Nc1ccccc1)c1ccc(Cl)c(S(=O)(=O)Nc2ccccc2)c1
  -7%	-7%
(74) Cc1c(C(=O)NCc2ccccc2)oc2ccc(S(=O)(=O)N3CCCC3)cc12
  ?	-6%
(75) CCc1cc2c(SCC(=O)c3ccccc3)ncnc2s1
  -10%	i
(76) COc1ccc(CNC(=O)c2cn(-c3cccc(OC)c3)c(=O)c3ccccc23)cc1
  -8%	-9%
(77) CCn1c(SCC(=O)NCC2CCCO2)nc2c(c1=O)SCC2 (configuration not stated)
  -4%	i
(78) CC(C)(C)CC(=O)Nc1ccccc1N1CCN(c2ccccc2)CC1
  -7%	-11%
(79) Cc1cccc(C)c1NC(=O)c1nc(S(C)(=O)=O)ncc1N(Cc1ccc(F)cc1)Cc1ccco1
  -14%	-3%
(80) COc1ccc(NC(=O)Cn2nc(C(=O)O)c3ccccc3c2=O)cc1S(=O)(=O)N1CCCCC1
  -10%	-9%
(81) Cc1cc(SCC#N)nc2ccccc12
  -2%	-12%
(82) COc1ccc(Cl)cc1NC(=O)CSc1cccc[n+]1[O-]
  9%	-8%
(83) CC(=O)N1c2ccc(S(=O)(=O)NCCC(=O)Nc3ccc(C)cc3Br)cc2CC1C (configuration not stated)
  -10%	-10%
(84) CC1CCN(c2nnc(NC(=O)Cn3c(=O)oc4ccccc43)s2)CC1
  -4%	-4%
(85) Cc1ccc(SCCC(=O)NCCSCc2ccccc2C)cc1
  -22%	49%[activator][1.46 µM]
(86) O=C(C(=O)N1CCc2ccccc2C1)c1cn(CC(=O)N2CCCC2)c2ccccc12
  -11%	i
(87) Cc1cn(CC(=O)NCC(C)c2ccccc2)c(=O)[nH]c1=O (configuration not stated)
  -7%	?
(88) CC(=O)N1CCOc2cc(S(=O)(=O)NCc3ccc(C)cc3)c(C)cc21
  -16%	-9%
(89) C[C@H]1CN([C@@H](C)CO)C(=O)CCCn2nncc2CO[C@@H]1CN(C)S(=O)(=O)c1ccc(-c2ccccc2)cc1
  -12%	i
(90) CC1(C(=O)NS(=O)(=O)c2cccc(F)c2)CCN1C(=O)CCc1ccc(Cl)cc1Cl (configuration not stated)
  0%	15%
(91) COc1ccc(CNC(=O)c2cc(COc3c(F)cccc3F)on2)cc1OC
  -27%	?
(92) Clc1ncnc2scc(-c3ccc(Br)cc3)c12
  -10%	?
(93) CC(=O)c1c(-c2ccc(Cl)cc2)c2ccccc2[nH]c1=O
  -12%	i
(94) C[N+](C)(N)CCOC(=O)C(O)(c1ccccc1)C1CCCCC1 (configuration not stated)
  -11%	-14%
(95) Cc1nc2ccccc2c(=O)n1/N=C/c1ccc(O)cc1
  -6%	-7%
(96) CCOc1ccccc1NC(=O)CSc1nnc(CC)c(CC)n1
  -4%	-7%
(97) O=P(Cc1ccccc1)(Cc1ccccc1)c1ccccc1
  -11%	-13%
(98) Cc1ccc(CNC(=O)CSc2c(C)cnc3c2c(=O)n(C)c(=O)n3C)cc1
  -6%	-2%
(99) Cc1ccc(N2C(=O)[C@@H]3CSC(c4ccc(F)cc4)N3C2=O)cc1 (some centres not stated)
  -20%	-15%
(100) O=C(Nc1cccc(-c2cccc(F)c2)c1)C1CCN(CC2CCOC2)CC1 (configuration not stated)
  ?	?
(101) O=C(CSc1ccc([N+](=O)[O-])cc1)NNC(=O)c1ccccc1F
  -3%	-15%
(102) CSc1ccc(NC(=O)NCCCN2CCN(c3ccccc3F)CC2)cc1
  ?	·
(103) CC(=O)c1c(NC(=O)C(C)C)nc(C)nc1-c1ccccc1
  13%	·
(104) Cc1ccc(Cl)cc1Nc1nc2ccccc2n2c(C)nnc12
  -14%	-17%
(105) COc1ccc(CCNC(=O)Cn2nnc(-c3ccccc3F)n2)cc1OC
  -11%	-13%

Other entries follow.
Every second line gives: VACV Venus inh	VACV mCherry inh
(106) COc1ccc(CNC(=O)CCCn2c(SCC(N)=O)nc3cc4c(cc3c2=O)OCO4)cc1
  -21%	-19%
(107) C#CCOC(=O)C(NC(=O)c1ccccc1)=C1CCCCC1
  -7%	·
(108) O=C1C(NS(=O)(=O)c2ccc(Cl)cc2)=C(N2CCCCC2)C(=O)c2ccccc21
  -23%	-7%
(109) CC12CN3CCN(CC(C3)C1O)C2 (configuration not stated)
  -27%	·
(110) C(=C\c1ccccc1)/CSc1nnc(-c2ccccn2)n1Cc1ccco1
  ?	?
(111) CC(C)(C)OC(=O)C[C@@H]1C/C=C\C[C@@H](CC(=O)NCCO)C(=O)NCCOC1=O
  -14%	-12%
(112) CCCn1c(N)c(N(CCOC)C(=O)COC(=O)COc2c(C)cc(C)cc2C)c(=O)[nH]c1=O
  -5%	i
(113) Cc1ccc(OCc2nc(-c3ccccn3)no2)cc1
  -3%	i
